Source: PubChem BioAssay
N370S GC mod = N370S glucocerebrosidase modulation, Gaucher chaperone candidate | Potency, µM (titrated, usually from 59.4 µM), inactives show at the top dose activity change, negative = inhibition, hits mostly inhibitors | N370S GC spleen homogenate, 4MU-glucoside fluorescence | 330,000 tested, 0.092% active | AID 2101 | P04062;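 note: 0% = full enzyme activity and -100% = no enzyme basal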
DT40 TDP1 CPT = DT40-hTDP1 cell growth loss with CPT; Potency, µM (doses to about 46.2 µM), for inactives: top-dose activity change, negative = growth inhibition, most hits filed as inhibitors; chicken DT40 Tdp1-/-;hTDP1 cells + 20 nM CPT, ATP luminescence, 48 h; 420,000 tested, 12% active; note: nearly all actives have a fitted effect of over 55% in size
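Chicken DT40 Tdp1-/- cells complemented with human TDP1, 400 cells/well, exposed to compounds plus 20 nM camptothecin for at least 48 h at 37 C; viability read as ATP content by CellTiter-Glo luminescence.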
The depositor's hits bear a star; ? = inconclusive; . = not tested or not shown. Calls come from the whole dose curve; as a rule, active = well fitted curve in the direction sought with a large enough effect; inconclusive = small, poorly fitted or top-dose-only effect, or another doubt; inactive = no such curve, though single readings can be large; an effect the other way counts as inactive or inconclusive. Unless noted, % is set by controls: 0 for no effect and ±100 for the full control effect; potency is the fitted concentration of half-maximal effect. A portion of the library, and most or all hits are left out here.

SMILES	N370S GC mod	DT40 TDP1 CPT
COc1ccccc1NC(=O)Cn1nnc(-c2ccccc2NC(=O)c2cc3ccccc3oc2=O)n1	8%	-10%
Cc1cc(S(=O)(=O)NC(C)C)ccc1OCC(=O)N1CCOCC1	5%	?
COc1ccc(C(=O)CC(=O)C(=O)Nc2cc(C)ccc2C)cc1	-12%	-103%
COc1cc2c(cc1OC)-c1cc(NCc3ccccn3)nc(=O)n1CC2	8%	-11%
N#CC1(NC(=O)COC(=O)/C=C/c2ccc3ccccc3n2)CCCCC1	-1%	-21%
CC1(C)CC(=O)c2cc(C(=O)NC3CCSC3=O)c(=O)n(-c3ccccc3)c2C1 (stereo not given)	5%	5%
COc1ccc(-c2nnc(SCc3ccc(C(=O)O)cc3)n2N)cc1	5%	-4%
CCOc1ccc(OCCn2c(S(=O)(=O)O)nc3c(N)ncnc32)cc1	-2%	-5%
CC(OC(=O)c1ccc2c(c1)OCO2)C(=O)NC1CCCCC1C (stereo not given)	5%	-11%
O=C(O)c1ccc(CNCc2ccccc2F)cc1	16%	7%
COc1ccc(C(=O)Nc2ccc(CN3CCOCC3)cc2)cc1	0%	-20%
Cc1c(N/C(=N/S(=O)(=O)c2ccccc2)c2ccc(Cl)cc2)c(=O)n(-c2ccccc2)n1C	7%	5%
O=C(Nc1cccc2ncccc12)C12CC3CC(CC(C3)C1)C2	6%	-10%
COc1ccccc1OCC(=O)Nc1cc(C(F)(F)F)ccc1-n1cncn1	6%	-4%
C/C(N)=C(/C#N)C(=O)COC(=O)c1ccccc1C(=O)c1ccc(C)cc1	?	-27%
CC1=C(C(=O)OCCNC(=O)c2cccnc2)C(c2cccc([N+](=O)[O-])c2)C(C(=O)OCCN(C)C)=C(C)N1 (stereo not given)	-1%	9%
CCOC(=O)/C(=C/C=C1\Sc2ccccc2N1CC)C(C)=O	1%	21µM*
CCCN(CCC)C(=O)CSc1nc2n[nH]c(C)c2c(=N)n1-c1ccc(OCC)cc1	4%	?
CCc1cccc2c(=O)c(C(=O)N3CCOCC3)c[nH]c12	5%	-3%
CN(C(=O)c1cccc(NC(=O)Cc2cccc(NC(=O)C3CCCN(C(=O)C4CC4)C3)c2)c1)C1CC1 (stereo not given)	.	-21%
O=C(CNC(=O)C1COc2ccccc2O1)N/N=C/c1ccc([N+](=O)[O-])cc1 (stereo not given)	-5%	6%
CC1CCN(c2nc3c(N)ncnc3n2[C@@H]2O[C@H](CO)[C@@H](O)[C@H]2O)CC1	3%	-8%
CCOC(=O)C(C)Sc1nnc(Cc2cc(=O)[nH]c(=O)[nH]2)n1-c1ccc(OCC)cc1 (stereo not given)	6%	2%
COc1cc(/C=N/NC(=O)CNC(=O)c2cccs2)ccc1O	5%	-11%
Cc1cccc(NC(=S)N2CCN(S(C)(=O)=O)CC2)c1	-4%	-1%
The list continues.
SMILES	N370S GC mod	DT40 TDP1 CPT
COc1ccc(CCNC(=O)c2n[nH]c(=O)c3ccccc23)cc1	-13%	-18%
COc1cc(NS(=O)(=O)c2c(C)oc3c(F)c(F)c(F)c(F)c23)cc(OC)c1OC	0%	23µM*
Cc1cc(C(=O)C[N+]2(C)CCOCC2)c(C)n1-c1ccc(Br)cc1	-12%	?
COC(=O)CNC(c1ccccc1)c1cc(C)ccc1NS(=O)(=O)c1ccc(C)cc1 (stereo not given)	2%	?
Cc1ccc(COc2ccc(-c3nnco3)cc2)cc1	-7%	-1%
CC(C)Cn1cc(C(=O)NCc2cccs2)c2c3ccccc3n(C)c2c1=O	4%	-17%
Cc1cc(O)c(C(C)C)cc1NC(=O)c1ccc(Cl)cc1	-19%	?
COc1ccc(S(=O)(=O)N2CCCC2=O)cc1N(C)S(C)(=O)=O	2%	0%
CCCCOC(=O)Cn1c(=O)n(CC(=O)OCCCC)c2cc(C)ccc21	4%	-31%
Cc1cc(-c2ccc(C)c(S(=O)(=O)Nc3cccc(CN4CCCC4)c3)c2)on1	-1%	-14%
CCOc1cnc(-c2c(-c3c(Cl)cccc3Cl)noc2C)o1	1%	?
O=C(NCc1ccccc1Cl)C1CCN(S(=O)(=O)c2ccc(-n3cnnn3)cc2)CC1	-10%	0%
CCCCN=C1CC(C)(C)CC(=O)/C1=C(/O)CCC	10%	?
COc1ccc(Cl)cc1NC(=O)COc1ccc(S(=O)(=O)N2CCOCC2)cc1C	-5%	-8%
O=C(CSc1nc2ccccc2[nH]1)NC(=O)NCc1ccco1	8%	-8%
Clc1ccc(-c2nnc(CNC3CC3)o2)cc1	-1%	20%
COc1cc(CC(=O)OCC(=O)NC2CC2)cc(OC)c1OC	8%	7%
N=c1oc2ccc(Cl)cc2cc1C(=O)Nc1ccc(F)cc1	1%	-26%
COC(=O)c1c(-c2ccccc2)csc1NC(=O)c1c(-c2ccccc2)noc1C	1%	-17%
CCSc1ccc2nnc(-c3ccc(F)cc3)n2n1	4%	?
Cc1ccnc(SCC(N)=O)n1	-3%	-14%
O=C(NCCc1cccs1)C(c1ccccc1)c1ccccc1	4%	?
CCCCCC(=O)NNC1CC(=O)N(c2ccccc2)C1=O (stereo not given)	-2%	0%
CN(C(=S)NC(=O)c1ccccc1)C1CCCCC1	3%	?
Cc1ccc(-c2cnc3ccccc3n2)cc1C	?	-1%

Gathered by group, those above with a furan ring, fused or not.
SMILES	N370S GC mod	DT40 TDP1 CPT
COc1cc(NS(=O)(=O)c2c(C)oc3c(F)c(F)c(F)c(F)c23)cc(OC)c1OC	0%	23µM*
O=C(CSc1nc2ccccc2[nH]1)NC(=O)NCc1ccco1	8%	-8%

3 structures already listed, ordered by molecular weight, falling:
SMILES	N370S GC mod	DT40 TDP1 CPT
COc1cc(NS(=O)(=O)c2c(C)oc3c(F)c(F)c(F)c(F)c23)cc(OC)c1OC	0%	23µM*
O=C(CSc1nc2ccccc2[nH]1)NC(=O)NCc1ccco1	8%	-8%
CCCCCC(=O)NNC1CC(=O)N(c2ccccc2)C1=O (stereo not given)	-2%	0%

Following part:
SMILES	N370S GC mod	DT40 TDP1 CPT
COc1ccc(NC(=O)CSc2n[nH]c(C)c2[N+](=O)[O-])cc1	-6%	-14%
Cc1nc2ccccc2c(=O)n1-c1cccc(NC(=O)c2cccs2)c1	1%	?
CCOC(=O)C1=C(C)NC(C)=C(C(=O)OCC)C1C(=O)OCC(=O)N1CCc2ccccc2C1	8%	?
CCN(CC(=O)Nc1ccc2c(c1)OCCO2)c1ccc(S(=O)(=O)N2CCOCC2)cn1	6%	2%
COC(=O)c1sccc1Oc1ccc(F)cc1[N+](=O)[O-]	18%	-1%
C/C(=N\Nc1nc(Nc2ccccc2)nc(N2CCOCC2)n1)c1cccs1	3%	23µM*
COc1ccc(C(CC(=O)O)NC(=O)c2cccs2)cc1 (stereo not given)	3%	-3%
CSc1ccc(CNC(=O)C2CCC(=O)N(Cc3cccc(F)c3)C2)cc1 (stereo not given)	-13%	-16%
CN(Cc1ccccc1)S(=O)(=O)c1ccc2c(c1)n(C)c(=O)c(=O)n2C	12%	-17%
COc1ccccc1N1CCN(C2CC(=O)N(c3ccccc3)C2=O)CC1 (stereo not given)	-7%	0%
COc1ccccc1NC(=O)Cn1nnc(-c2ccccc2NS(=O)(=O)c2ccccc2)n1	27%	13µM*
COc1ccc(C(=O)c2ccc(OC)cc2OC)cc1	7%	-102%
COc1ccc(S(=O)(=O)Nc2cccc(-c3ccc(N4CCCCCC4)nn3)c2)c(OC)c1	4%	?
COc1ccccc1NC(=S)NCc1ccccc1Cl	5%	4%
O=c1cc2c(n[nH]1)-c1ccccc1CC2	0%	-5%
O=C(CC1C(=O)NCCN1Cc1cccc(Oc2ccccc2)c1)NCCn1cccn1 (stereo not given)	-1%	0%
COc1ccccc1C(=O)c1cc2ccc(O)cc2oc1=O	-7%	-16%
CC1(C)CC(=O)C2=C(C1)OC1OC(=O)CC21C (stereo not given)	16%	-5%
COc1ccc([C@@H]2C[C@H]3CN(c4ccccc4)C(=O)[C@]34CCCN24)c(OC)c1OC	8%	-19%
Cc1cc(OCC(=O)N2CCCC2)ccc1Cl	-4%	-101%
O=C(NCc1cccnc1)C1CCCN1S(=O)(=O)c1ccc(Cl)cc1 (stereo not given)	-2%	-6%
Cc1noc(-c2ccccc2)c1NC(=O)Nc1ccccc1	4%	?
O=C(CN1C(=O)c2ccccc2C1=O)Nc1ccccc1C(=O)NC1CCCCCC1	?	-17%
CNC(=O)COC(=O)c1cc(F)c(F)cc1Cl	-20%	-7%
CCSc1nc(-c2cccs2)nc2ccccc12	1%	15µM*

Single records (already shown). Values in the order: N370S GC mod	DT40 TDP1 CPT
`Cc1c(N/C(=N/S(=O)(=O)c2ccccc2)c2ccc(Cl)cc2)c(=O)n(-c2ccccc2)n1C` reads 7%	5%
`Cc1nc2ccccc2c(=O)n1-c1cccc(NC(=O)c2cccs2)c1` reads 1%	?
`O=C(Nc1cccc2ncccc12)C12CC3CC(CC(C3)C1)C2` reads 6%	-10%
`N=c1oc2ccc(Cl)cc2cc1C(=O)Nc1ccc(F)cc1` reads 1%	-26%
`CCCN(CCC)C(=O)CSc1nc2n[nH]c(C)c2c(=N)n1-c1ccc(OCC)cc1` reads 4%	?

Following part
SMILES	N370S GC mod	DT40 TDP1 CPT
CCCC[C@H]1COCCS(=O)(=O)N1Cc1cccc(Cl)c1	-1%	?
COC(=O)C1=C(C)Nc2nc3ccccc3n2C1c1cc(OC)c(OC)c(OC)c1 (stereo not given)	18%	-13%
Cc1ccc(OCC(=O)NNC(=O)CCc2ccccc2)c(Br)c1	2%	-3%
COc1cccc(N2CC(NS(=O)(=O)c3ccc4ccccc4c3)CC2=O)c1 (stereo not given)	0%	-15%
CCOC(=O)c1cc2c(=O)[nH]ccc2nc1C	0%	-6%
Cc1ccc2nc(Nc3ncc4c(n3)CC(C)(C)CC4=O)nc(C)c2c1	-5%	-9%
CC(/C=C/c1ccccc1)=N/NC(=O)c1cccc(Br)c1	1%	?
CC(=O)NS(=O)(=O)c1ccc(NC(=O)CC23CC4CC(CC(Br)(C4)C2)C3)cc1	-15%	0%
O=C(CCSc1nnc2scc(-c3ccccc3)n12)NCc1ccc2c(c1)OCO2	0%	1%
COCCNS(=O)(=O)c1cc(C(=O)O)ccc1OC	-1%	14%
Cc1ccccc1OC(C)C(=O)Nc1ccc(S(=O)(=O)Nc2nccs2)cc1 (stereo not given)	-12%	-9%
CN1CCC(=NOc2ccc([N+](=O)[O-])cc2)CC1	-2%	-9%
Cc1ccc(-c2ccc(/C=N/N3C(=O)C4C5C=CC(CC5)C4C3=O)o2)c([N+](=O)[O-])c1 (stereo not given)	6%	18µM*
O=C(CN1CCN(C(=O)c2ccco2)CC1)Nc1cc(C(F)(F)F)ccc1Cl	-1%	?
CCCCCCOC(=O)Nc1ccc(S(=O)(=O)Nc2cccc([N+](=O)[O-])c2)cc1	-6%	?
Nc1ccc2c(c1)OCCOCCOCCOCCOCCO2	5%	-4%
O=C(O)c1cc(O)ccc1O	.	-8%
CCOc1cc(S(=O)(=O)NC2CCCCC2)ccc1F	-14%	?
O=C(NCCCN1CCOCC1)c1ccc(NC(=O)C2COc3ccccc3O2)cc1 (stereo not given)	-6%	4%
CCNc1nc(N2CCCCC2)nc(-n2nnc(C(=O)OCC)c2C)n1	0%	?
CC(=O)c1c(C)n(-c2ccc(Br)cc2)c2ccc(O)cc12	2%	-18%
Cc1ccc(C(=O)COC(=O)c2ccncc2)cc1[N+](=O)[O-]	2%	?
COc1ccc(C(=O)Nc2ccccc2C(=O)NC(Cc2ccc(O)cc2)C(=O)NNC(=O)c2ccccc2)cc1 (stereo not given)	-10%	?
S=c1[nH]nc(-c2cccnc2)n1/N=C/C=C/c1ccco1	-1%	-5%
COc1cccc(OCc2nnc(SCC(=O)OCc3ccccc3)o2)c1	-3%	-16%
The listing continues.
SMILES	N370S GC mod	DT40 TDP1 CPT
Cc1ccc(NS(=O)(=O)c2ccc(Cl)c(C(=O)O)c2)cc1S(=O)(=O)N1CCOCC1	0%	-8%
CCCCn1c(SCC(=O)NCc2ccco2)nc2c(sc3ccccc32)c1=O	-1%	?
O=C(OC1CCOC1=O)C1CCN(S(=O)(=O)c2c(Cl)cccc2Cl)CC1 (stereo not given)	0%	-4%
CCn1c(SCC(=O)N2CCN(c3ccccc3)CC2)nnc1-c1c[nH]c2ccccc12	5%	21µM*
CCOc1ccc(C(=O)Nc2cccc3nsnc23)cc1[N+](=O)[O-]	2%	-1%
Cc1ccc(C(=O)NCCCNc2ccc(C(F)(F)F)cc2[N+](=O)[O-])cc1	1%	-18%
O=C(Nc1cccc(NC(=O)c2cccc([N+](=O)[O-])c2)n1)c1cccc([N+](=O)[O-])c1	-5%	-5%
COc1ccc(/C=C/C(=O)OCC(=O)NCC2CCCO2)cc1 (stereo not given)	5%	-19%
CSc1ccccc1NC(=O)C1=COCCO1	-10%	-11%
CCn1c(SCC(=O)Nc2ccccc2N2CCOCC2)nnc1-c1ccccc1	-13%	1%
O=c1cc(-c2ccc([N+](=O)[O-])cc2)c2cc3c(cc2[nH]1)OCCO3	-21%	?
COc1ccc(NC(=O)CC2C(=O)N(C)C(=S)N2CCc2ccccc2)cc1 (stereo not given)	-16%	?
Oc1ccc(N=Nc2n[nH]c(-c3ccc(Br)cc3)n2)cc1	-12%	?
COc1ccccc1OCc1nc(-c2cccc([N+](=O)[O-])c2)no1	11%	-23%

Another view of part of the listing above:
Molecule,N370S GC mod,DT40 TDP1 CPT
O=C(Nc1cccc(NC(=O)c2cccc([N+](=O)[O-])c2)n1)c1cccc([N+](=O)[O-])c1,-5%,-5%
Oc1ccc(N=Nc2n[nH]c(-c3ccc(Br)cc3)n2)cc1,-12%,?
